# H5N1 CPE = antiviral screen in MDCK cells, H5N1 avian flu; cytopathic effect, luminescence, 72 h; stronger effect = higher value; no value below 0 was filed and about half of the inactive calls have no number; reference of the scale not given here; inhibition, % at 50 µM; 96,000 tested, 0.07% active; AID 740; in the data active = inhibition above about 25%
# * hit, by the source's call; i = inactive. Not all compounds are listed; count on the stated rates, not on these rows.
# Sample of the layout:
SMILES,H5N1 CPE
Cn1nc(C(=O)NCc2cccnc2)c2ccccc2c1=O,0.9
O=C(c1ccco1)N1CCN(C(=O)C2CC(c3ccc(Cl)c(Cl)c3)=NO2)CC1 (configuration not stated),i

# This part in full, from the first entry:
SMILES,H5N1 CPE
Cn1nc(C(=O)NCc2cccnc2)c2ccccc2c1=O,0.9
O=C(c1ccco1)N1CCN(C(=O)C2CC(c3ccc(Cl)c(Cl)c3)=NO2)CC1 (configuration not stated),i
CCOc1ccc2[nH]c(=O)c(C(c3nnnn3Cc3ccco3)N3CCCC(C)C3)cc2c1 (configuration not stated),i
CCOC(=O)c1c(Nc2ccc(Cl)cc2)sc(/C=C2\C=Nc3ccccc32)c1O,i
CCN1CC=C2C(C#N)=C(N)C(C#N)(C#N)[C@H](c3ccoc3)[C@H]2C1,2.3
COc1cccc(OC)c1C(=O)Nc1ccc(N2CCCCC2)cc1,i
O=C(NC1CCCC1)C(c1ccccc1F)N(C(=O)c1ccco1)C1CCCC1 (configuration not stated),i
COC(=O)c1ccc(NC(=O)CSc2nnc(C(C)NC(=O)c3ccccc3Cl)n2C)cc1 (configuration not stated),0.3
C=CCn1c(NC)cc(=O)n(C)c1=O,i
CC(=O)Nc1ccc(Nc2ncnc3c2cnn3-c2ccc(C)cc2C)cc1,i
CC(=O)NS(=O)(=O)c1ccc(NC(=O)NC2CCCCC2)cc1,i
Cc1ccc(CN2C(=O)CCC2C(=O)NCc2ccc3c(c2)OCO3)cc1 (configuration not stated),0.6
COc1ccc(CC(=O)Nc2ccc(-c3csc(C)n3)cc2)cc1,i
Cc1ccc(NC(=O)CSc2nc(=O)cc(N)n2-c2ccccc2)cc1,i
C=CCN1C(=O)C(CC(=O)NCC)SC1=Nc1ccc(S(N)(=O)=O)cc1 (configuration not stated),i
Cn1cnc(S(=O)(=O)Nc2ccc(C(F)(F)F)cc2)c1,1.5
O=C(CN1CCCCCC1)N/N=C/c1cccs1,i
CCNc1nc(Oc2ccccc2)nc(OC(C)C(=O)OCC)n1 (configuration not stated),i
COc1cccc2c(=O)n(CC(=O)N3CCN(c4ccccc4)CC3)ccc12,1.2
Cc1nn(Cc2cccc(C(=O)NC(C)c3ccc(C(C)(C)C)cc3)c2)c(C)c1[N+](=O)[O-] (configuration not stated),0.8
CCN1CCc2c(sc(NC(=O)c3ccc(S(=O)(=O)N4CCOCC4)cc3)c2C(N)=O)C1,0.3
O=C(COC(=O)c1ccc(Br)o1)Nc1ccc(S(=O)(=O)N2CCCC2)cc1,1.9
CCN(CC)S(=O)(=O)c1cccc(-c2nnc(SCCOc3ccc(Cl)cc3)o2)c1,0.6
O=C(O)CCC(=O)Nc1ccccc1N1CCOCC1,i
Cc1cc(OC(=O)CCNC(=O)OC(C)(C)C)c2c3c(c(=O)oc2c1)CCC3,1.1
COC(=O)Nc1cc(C(F)(F)F)ccc1N1CCN(c2ccccc2)CC1,0.6
C/C(=N/OC(=O)c1cccc(Cl)c1)c1nccs1,i
O=C1CC(c2ccccc2)CC(O)=C1C=NCc1ccccc1 (configuration not stated),i
CC(C)OCCCNc1ncnc2c1cnn2-c1ccccc1,0.3
Cc1ccc(Nc2nc(C(=O)N3CCC(C(=O)N4CCN(C)CC4)CC3)cs2)cc1,0.3
COC(=O)C1=C(C)NC(=O)NC1c1cn(-c2ccccc2)nc1-c1cccs1 (configuration not stated),i
CN1CCN(S(=O)(=O)c2ccc(NC(=O)c3ccc(Br)s3)cc2)CC1,i
CN(C(=O)N1CCN(c2ccccn2)CC1)c1ccccc1,2.0
COCCSc1ccccc1C(=O)NCCCn1ccnc1,0.4
CCOC(=O)CN(C(=O)CSc1nnc(C)n1-c1ccccc1)c1cccc([N+](=O)[O-])c1,1.5
O=C(NCc1cccnc1)NC1CCCN1S(=O)(=O)c1ccc(Cl)cc1 (configuration not stated),i
Cc1ccc(C(=O)NC(=S)Nc2ccc3c(c2)OCCO3)c(C)c1,0.1
COc1ccc(C)cc1-n1nnnc1SCC(=O)c1ccc2c(c1)OCCO2,0.8
Cc1ccc(/C(O)=C2/C(=O)C(=O)N(CCCn3ccnc3)C2c2ccccn2)cc1 (configuration not stated),i
Cc1cc(C)nc(N2CCCC(C(=O)Nc3ccc4c(c3)OCCO4)C2)n1 (configuration not stated),0.3
C/C=C/Cn1c(Br)nc2c1c(=O)[nH]c(=O)n2C,0.9
Cc1cc(C(F)(F)F)c(C#N)c(SCC(=O)NC(C)(C)C)n1,0.1
NC(=O)c1ccsc1NC(=O)CSc1nc2ccccc2c(=O)n1CCCO,2.1
O=S(=O)(c1ccc(Oc2ccc(S(=O)(=O)N3CCOCC3)cc2)cc1)N1CCOCC1,0.5
CC(=O)Nc1ccc(CN2CCCCCCC2)cc1,i
COC(=O)c1c2c(nc3ccccc13)CCC2,1.0
O=C(c1ccccc1Cl)N1N=C(c2ccc(Br)cc2)CC1c1nc2ccccc2[nH]1 (configuration not stated),0.9
CCOC(=O)c1sc(=NC(=O)c2cc(OC)c(OC)c(OC)c2)n(C)c1C,0.6

# In another format: entries from further up.
canonical_smiles | H5N1 CPE
CC(=O)Nc1ccc(CN2CCCCCCC2)cc1 | i
COC(=O)c1c2c(nc3ccccc13)CCC2 | 1.0
O=C(c1ccccc1Cl)N1N=C(c2ccc(Br)cc2)CC1c1nc2ccccc2[nH]1 (configuration not stated) | 0.9

# Further compounds follow:
SMILES,H5N1 CPE
CCn1c(CSc2nnc(-c3ccoc3C)n2C)nc2cc(S(=O)(=O)N(C)C)ccc21,1.0
COc1ccc(-c2cc(C(F)(F)F)n3nc(C(=O)N4CCC5(CC4)OCCO5)cc3n2)cc1OC,0.3
CCCCCOC(=O)Cn1c(N2CCOCC2)nc2c1c(=O)[nH]c(=O)n2C,0.4
O=C(c1cccs1)n1nc(-c2ccco2)nc1SCc1ccccc1,1.0
O=[N+]([O-])c1ccc(S(=O)(=O)N2CCN(Cc3c[nH]c4ccccc34)CC2)cc1,0.5
CC1(C)CC(=O)C=C(Nc2ccccc2O)C1,i
Cc1nc(S(=O)(=O)N2CCOCC2)c(C#N)c(C)c1Cl,0.1
C=CCNc1nc(-c2ccccn2)nnc1-c1ccccc1,4.3
O=C(NCc1cccs1)C1CCCN(c2nc3ccccc3o2)C1 (configuration not stated),i
CCC1Oc2ccc(C)cc2N(CC(=O)NCCC2=CCCCC2)C1=O (configuration not stated),1.2
Fc1ccc2[nH]c3c(N4CCN(c5ccccc5)CC4)ncnc3c2c1,2.7
CC(C)N=c1scc(-c2ccco2)n1/N=C/c1ccc(O)c(O)c1,i
c1ccc(CC2CNc3ccccc3CN2)cc1 (configuration not stated),i
CCC(C)NS(=O)(=O)c1cccs1 (configuration not stated),1.2
O=C(C1CCN(S(=O)(=O)c2cccs2)CC1)N1CCCCCC1,0.2
NCCc1ccc(O)cc1,i
Cc1cccc(C)c1NC(=O)CSCCO,i
O=C(NC1CCC(NC(=O)C(F)(F)C(F)F)CC1)C(F)(F)C(F)F (configuration not stated),i
O=c1[nH]c(=O)n(CCO)c2nnn(Cc3ccccc3)c12,i
Cc1ccc(SCC(=O)Nc2cccc(NC(=O)c3ccco3)c2)cc1,i
COc1ccccc1/C=C/CN1CCN(c2ccccc2)CC1,i
Cc1ccc2[nH]c(=O)c3cc(C(=O)N(CCCOC(C)C)Cc4ccco4)sc3c2c1,1.0
CCCc1cc(=O)n2[nH]c(CCc3ccccc3)nc2n1,0.7
CCOc1ccc2[nH]c(C)c(CN3CCCCC3)c(=O)c2c1,i

# A few values from the entries so far.
# O=C(C1CCN(S(=O)(=O)c2cccs2)CC1)N1CCCCCC1 in H5N1 CPE reads 0.2
# Cc1ccc2[nH]c(=O)c3cc(C(=O)N(CCCOC(C)C)Cc4ccco4)sc3c2c1 in H5N1 CPE reads 1.0

# (more compounds)
SMILES,H5N1 CPE
Cn1c(C(=O)N2CCC(C(=O)N3CCC4(CC3)OCCO4)CC2)cc2sccc21,1.0
COc1cc(OC)c(C2C(C(=O)Nc3ccccc3)=C(C)Nc3ncnn32)cc1OC (configuration not stated),i
O=C(C1=C(O)C(=O)N(Cc2ccccc2)C1c1ccco1)c1ccco1 (configuration not stated),i
Cc1cc(OCc2nc(-c3cccs3)no2)cc(C)c1Cl,1.5
CCN(CC)C(=O)C1CCN(Cc2ccc(Br)cc2)CC1,i
O=C(CN1C(=O)c2ccccc2C1=O)c1ccccc1,i
Cc1ccc(N=c2ssnc2Cl)cc1,0.6
COc1ccc(NC(=O)Cn2nnc(C(N)=O)c2N)c(OC)c1,0.8
CN(C)[C@H]1N(C(=O)c2ccc(Br)cc2)N=C2c3ccccc3S(=O)(=O)N21,i
CCN(CCCNC(=O)C1CCN(S(=O)(=O)c2c(C)[nH]c(=O)[nH]c2=O)CC1)c1cccc(C)c1,0.4
COc1ccc(S(=O)(=O)CCc2nc3ccccc3s2)cc1,i
CC1Cc2ccccc2N1C(=O)CSc1nnc2n1C(C)(C)Cc1ccccc1-2 (configuration not stated),0.4
NC(=S)N/N=C/c1ccc(-c2cc(Cl)cc(Cl)c2)o1,i
CC(C)(C)C(=O)OCc1cn(-c2ccccc2)nn1,i
C/C(=N\O)C1(C)N(O)C(C)(C)C(c2ccc(Br)cc2)=[N+]1[O-] (configuration not stated),0.3
CCCn1c2ccccc2c2nnc(SCC(=O)Nc3ncccn3)nc21,5.6
COCCN1C(=O)c2ccccc2C(C(=O)Nc2ccc3c(c2)OCCO3)C1c1ccc(F)cc1 (configuration not stated),i
CC(C)C(c1nnnn1C1CCCC1)N1CCN(C(=O)c2ccco2)CC1 (configuration not stated),1.0
Cn1c(Cl)c(/C=N/OC(=O)c2cccc(Cl)c2)c2ccccc21,i
COc1ccc(CCNC(=O)CCNS(=O)(=O)c2cccc3nonc23)cc1OC,1.2
O=Cc1ccccc1Oc1ccccc1,i
COC(=O)c1c(NC(=O)C2CC2)sc2c1CCN(C(C)=O)C2,0.5
Cc1onc(-c2ccccc2Cl)c1C(=O)NCc1ccco1,0.6
CC(=O)C1=C(O)C=C(c2ccco2)CC1c1ccco1 (configuration not stated),i
COc1ccc(-c2cc(C(F)F)n3ncc(C(=O)N4CCSCC4)c3n2)cc1,0.2
COc1ccc2c(c1)c(C(=O)N1CCN(C)CC1)c(C)n2-c1ccccc1,0.5
N#Cc1cnn(-c2ncnc3sc(-c4ccccc4)cc23)c1N,1.1
COC(=O)COc1ccc(S(=O)(=O)Nc2ccc3c(c2)OCO3)cc1,0.3
Cc1ccc(CNC(=O)C(NS(=O)(=O)c2cccs2)C(C)C)cc1 (configuration not stated),0.1
COc1ccccc1CNC(=O)c1ccc(CNc2c(N3CCCC3)c(=O)c2=O)cc1,1.2
CC1(C)[N+]([O-])=C2C(=[N+]([O-])C1(C)C)c1ccccc1/C2=N\O,0.2
CCN(CC)CCCN1C(=O)c2oc3ccccc3c(=O)c2C1c1cccnc1 (configuration not stated),0.0
Cc1ccc2c(NC(=O)C3CC3)cccc2n1,0.3
O=c1c(Cc2ccc(F)cc2)c(O)ccn1Cc1ccc(Cl)cc1Cl,0.7
COC(=O)[C@H](C)NC(=O)Nc1cc(Cl)ccc1C,0.0
Cc1scc(C(=O)Nc2ccon2)c1-c1ccccc1,i
COc1ccc(NC(=O)CSC2=NC(=O)CC(C)=N2)cc1,i
COc1ccc2[nH]c(=O)c(CN(Cc3nnnn3Cc3ccco3)C3CCCCC3)cc2c1,i
COc1ccc(OC)c(NC(=O)C(CC(C)C)NC(=O)C2CCCCC2)c1 (configuration not stated),i
COc1cc(O)oc1C=Nc1ccc(C(F)(F)F)cc1,i
CS(=O)(=O)N(CC(=O)NCc1ccc2c(c1)OCO2)Cc1ccccc1,i
C=CCNC(=O)c1onc(CSc2ccccc2F)c1C(=O)O,i
COC(=O)c1cc2c(ccn2-c2ccc(F)cc2)n1CC(C)C,i
CCOc1ccc2[nH]c(=O)c(C(c3nnnn3C3CCCCC3)N3CCN(CC)CC3)cc2c1 (configuration not stated),0.3
NCCCCCc1nnc(SCc2ccc(Cl)c(Cl)c2)o1,i
CC(=O)Nc1cccc(N2C(=O)CC(N3CCC(C(=O)N4CCCCC4)CC3)C2=O)c1 (configuration not stated),i
COCCCNC(=O)Cn1cc2c(n1)CCC(C)C2 (configuration not stated),i
O=C(c1ccccc1)N1CCN(c2ncnc3c2cnn3-c2ccccc2)CC1,i

# Sorted by molecular weight (rising): part of the list above.
SMILES,H5N1 CPE
COCCCNC(=O)Cn1cc2c(n1)CCC(C)C2 (configuration not stated),i
COc1cc(O)oc1C=Nc1ccc(C(F)(F)F)cc1,i
COC(=O)c1cc2c(ccn2-c2ccc(F)cc2)n1CC(C)C,i
C=CCNC(=O)c1onc(CSc2ccccc2F)c1C(=O)O,i
CS(=O)(=O)N(CC(=O)NCc1ccc2c(c1)OCO2)Cc1ccccc1,i
COc1ccc2[nH]c(=O)c(CN(Cc3nnnn3Cc3ccco3)C3CCCCC3)cc2c1,i

# (cont.)
SMILES,H5N1 CPE
CCOc1ccc(NC(=O)CC2CC(C)(C)OC2=O)cc1 (configuration not stated),i
CC(NC(=O)Nn1cnnc1)(C(F)(F)F)C(F)(F)F,0.2
CC(=NCc1ccc2c(c1)OCO2)c1c(O)[nH]c(=O)[nH]c1=O,i
C=CCNc1nc(N2CCCCC2)c(C#N)c2c1CN(Cc1ccccc1)CC2,i
COc1ccc(CCCC(=O)NC2CCCCC2C)c(C)c1 (configuration not stated),i
CCCOC(=O)CSC1=C(C#N)C(c2ccccc2OC)C(C#N)C(=O)N1 (configuration not stated),4.5
